Compound activity from PubChem BioAssay.
HPGD inh: blocks human HPGD enzyme activity. purified HPGD, NADH fluorescence kinetic, PGE2 substrate. hit rate 4.3% among 150,000. Potency, µM, inactives show at the highest dose activity change, negative = inhibition, usual class: inhibitors. P15428. AID 894; active = well fitted inhibition curve with a large enough effect (not every such curve was filed as active); inconclusive = small, poorly fitted or top-dose-only effect, or another doubt; inactive = no such curve, though single readings can be large or run the other way;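 note: top concentration of the series not given in the record; plate controls included wells without enzyme; inactives centre near -10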
Target sequence (P15428 whole entry, looked up): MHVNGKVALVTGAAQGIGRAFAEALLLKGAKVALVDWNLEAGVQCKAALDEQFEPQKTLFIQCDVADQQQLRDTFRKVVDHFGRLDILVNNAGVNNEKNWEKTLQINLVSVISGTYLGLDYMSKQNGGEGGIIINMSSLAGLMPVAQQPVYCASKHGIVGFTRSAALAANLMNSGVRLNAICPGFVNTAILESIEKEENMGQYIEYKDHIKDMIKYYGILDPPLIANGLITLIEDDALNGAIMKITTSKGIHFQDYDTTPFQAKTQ
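NADH formation kinetics: reaction with 30 uM PGE2 and 1 mM NAD+ (final), 20 nM enzyme, Tris-HCl pH 8 with Tween 20, after 15 min compound preincubation at room temperature. Fluorescence change, last versus first of five reads.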
Numbers without * were called inactive; ? = inconclusive. % is set by controls: 0 for no effect and ±100 for the full control effect; potency is the fitted concentration of half-maximal effect.

SMILES	HPGD inh
Cc1cc(NC(=O)CN2CCOCC2)n(-c2nc3ccccc3s2)n1	-8%
CC1CCN(S(=O)(=O)c2ccc3ncn(CC(=O)N(C)Cc4ccccc4)c(=O)c3c2)CC1	-5%
CC(OC(=O)c1cccc(S(=O)(=O)Nc2cccc(C(F)(F)F)c2)c1)C(=O)Nc1ccc2c(c1)OCCO2 (centres undefined)	-18%
CC(CCC(=O)O)C1CCC2C3C(=O)CC4CC(=O)CC[C@@]4(C)C3CC(=O)[C@]12C (some centres undefined)	-14%
Cc1ccc(-c2nc(CSCC(=O)N3CCN(c4ccccn4)CC3)c(C)o2)cc1	-15%
CCCc1ccc(Oc2coc3cc(OCC(=O)Nc4ccccc4C)ccc3c2=O)cc1	0%
COc1ccc(CCNc2ccncn2)cc1OC	-3%
CCOC(=O)c1ccc(NS(=O)(=O)c2ccc3[nH]c(=O)[nH]c3c2)cc1	28µM*
Cc1oc(-c2ccccc2)cc1C(=O)Nc1ccccc1	-11%
COc1cc(=O)[nH]c(=O)n1CC(=O)c1ccccc1	-11%

Looked up above.
HPGD inh, CCCc1ccc(Oc2coc3cc(OCC(=O)Nc4ccccc4C)ccc3c2=O)cc1 stands at 0%
HPGD inh, COc1ccc(CCNc2ccncn2)cc1OC stands at -3%

(list continues)
SMILES	HPGD inh
C=C(C)Cn1c(CCNC(=O)C(C)C)nc2ccccc21	1%
COc1cccc(C(=O)Nc2cc(C(=O)NCCc3ccccc3)ccc2Cl)c1	-12%
Cc1ccnc(N/N=C/c2ccco2)n1	-21%
COc1ccc(NC(=O)COC(=O)c2c(-c3ccccc3)noc2C)cc1	-6%
Cc1ccc(N2C(=O)C3C4C=CC(CNC(=S)Nc5cccc(Cl)c5)(O4)C3C2=O)cc1 (centres undefined)	-28%
CCCc1nnc(-c2cc(OC)c(OC)c(OC)c2)o1	-9%
COc1cccc(C(=O)Nc2nc(-c3ccc4c(c3)OCO4)cs2)c1	-9%
COCCn1c(SCc2nc(N)nc(Nc3ccccc3C)n2)nc2ccccc2c1=O	-8%
CCOC(=O)c1c(-c2ccccc2Cl)csc1NC(=O)CSc1nc(C)cc(=O)[nH]1	14µM*
CCn1c(O)c(C(C#N)=C2N=c3ccccc3=N2)c2ccccc21	-14%
O=C1CCCC(O)=C1C=NCCc1ccccc1	-14%
O[Si](CCCN1CCCCC1)(c1ccc(F)cc1)C1CCCCC1 (centres undefined)	-6%
CCOc1ccc(NC(=O)c2nnn(CC(=O)Nc3ccccc3OC)c2N)cc1	?
COc1cnc(-c2ccccn2)nc1Oc1ccc(Cl)cc1	-13%
O=C(Nc1ccc[n+](CC(=O)c2cccc3ccccc23)c1)c1ccccc1	-19%
CCCn1nnc(NC(=O)Cc2ccccc2)n1	-2%
Cc1ccc(S(=O)(=O)Nc2ccc(Br)cc2/C=N/n2cnnc2)cc1	-3%
O=C(CN1C(=O)CCS(=O)(=O)c2ccccc21)NCc1ccc(F)cc1	-13%
Cc1ccccc1OC1C(=O)N(Cc2ccc3c(c2)OCO3)C1c1sccc1C (centres undefined)	-19%
Cc1cc(C)nc(SCC(=O)N/N=C/c2cccn2-c2cccc(C(F)(F)F)c2)n1	-8%
CCOP(=O)(c1ccc(N(C)C)cc1)C(O)c1ccccc1 (centres undefined)	-8%
Cc1ccc(C)c(NS(=O)(=O)c2cc(C(=O)Nc3ccccc3-c3ccccc3)ccc2Cl)c1	-27%
Cc1cnc(C(=O)Nc2ccc(-n3cnnn3)cc2)cn1	-23%
CCC(C)Sc1nnc(CSc2nc3nc(C)cc(C)n3n2)o1 (centres undefined)	-29%
O=C(NCCC1=CCCCC1)C1CCN(S(=O)(=O)c2ccc(-n3cnnn3)cc2)CC1	-4%
c1ccc2c(c1)ccc1cc3c(ccc4ccccc43)cc12	-4%
COc1ccccc1CNC(=O)C(CCSC)NS(=O)(=O)c1ccc2c(c1)oc(=O)n2C (centres undefined)	-6%
Cc1cc(C)nc(SCC(=O)c2ccc3c(c2)OCCO3)n1	-27%
CC(C)c1ccccc1OCC(=O)NCC(c1cccs1)N1CCOCC1 (centres undefined)	-9%
COC(=O)c1cc(NC(=O)c2cc(C)oc2C)cc(C(=O)OC)c1	-21%

A second format for some results above:
| canonical_smiles | HPGD inh |
| --- | --- |
| O=C(NCCC1=CCCCC1)C1CCN(S(=O)(=O)c2ccc(-n3cnnn3)cc2)CC1 | -4% |
| CCCc1nnc(-c2cc(OC)c(OC)c(OC)c2)o1 | -9% |
| O=C1CCCC(O)=C1C=NCCc1ccccc1 | -14% |
| C=C(C)Cn1c(CCNC(=O)C(C)C)nc2ccccc21 | 1% |
| Cc1ccccc1OC1C(=O)N(Cc2ccc3c(c2)OCO3)C1c1sccc1C (centres undefined) | -19% |
| Cc1oc(-c2ccccc2)cc1C(=O)Nc1ccccc1 | -11% |
| O[Si](CCCN1CCCCC1)(c1ccc(F)cc1)C1CCCCC1 (centres undefined) | -6% |

Other structures:
SMILES	HPGD inh
O=C(NCCCN1CCN(CCCNC(=O)c2cccc(Cl)c2)CC1)c1cccc(Cl)c1	1%
COc1ccc(CC(NC(C)=O)C(=O)NC2CCN(c3nc(C)cc(C)c3C#N)CC2)c(OC)c1 (centres undefined)	?
C=CCNC(=O)c1cc2c(=O)n3cc(C)ccc3nc2nc1NCC1CCCO1 (centres undefined)	?
O=C(CSc1ccsc1[N+](=O)[O-])N1CCN(c2ccccc2)CC1	-3%
O=C(CCCCCNS(=O)(=O)c1ccc(Br)cc1)NCCN1CCOCC1	-17%
CCC(=O)N/C(N)=N/c1nc(C)c2cc(OC)ccc2n1	?
Clc1ccccc1COc1ccc(/C=N/n2cnnc2)cc1	-11%
COc1cccc(NC(=O)Cn2c(=O)oc3ccccc32)c1	-3%
COc1ccc(/C(C)=N/NC(=O)c2ccc(N(C)C)cc2)cc1	-11%
CC1(C)CC(CC(=O)O)(c2ccccc2)CCO1 (centres undefined)	-6%
CCNC(=O)/C(C#N)=C/c1c(N2CCN(Cc3ccc4c(c3)OCO4)CC2)nc2c(C)cccn2c1=O	-10%
CC1(C)CC(=O)C=C(Nc2ccccc2F)C1	22µM*
COc1ccc2oc(C(F)(F)C(F)(F)F)cc(=O)c2c1	?
COC(=O)c1cc(C(=O)OC)cc(N2C(=O)CC(NNC(=O)c3ccccc3Cl)C2=O)c1 (centres undefined)	-15%
CCc1ccc2[nH]c(=O)c(C(c3nnnn3CCOC)N3CCN(c4ccccc4F)CC3)cc2c1 (centres undefined)	?
CC(C)c1cc(C(=O)N/N=C/c2ccco2)n[nH]1	-17%
O=C(CCC(=O)Nc1nnc(C2CCCCC2)s1)NCc1cccs1	-11%
O=C(Nc1nnc(-c2cccs2)o1)c1ccco1	-13%
CC(=O)c1ccc(NC(=O)c2ccc(COc3ccccc3[N+](=O)[O-])o2)cc1	-22%
COc1ccccc1OCC(=O)NNC(=S)NC(=O)c1ccco1	-18%
COCCn1nnnc1C(c1ccc(OC)cc1OC)N1CCN(c2ccccc2)CC1 (centres undefined)	-18%
COc1ccc(N=Cc2c[nH][nH]c2=O)cc1	-18%
CCCNC(=O)COC(=O)c1ccccc1C(=O)N(C)C1CCCCC1	-2%
O=[N+]([O-])c1ccc(N2CCCCC2)c(Cl)c1N1CCCCC1	-6%
COc1ccc(OC)c(NC(=O)COC(=O)CCCN2C(=O)c3ccccc3C2=O)c1	-15%
CC(C)C(=O)Nc1cccc(C(=O)Nc2nnc(C(C)(C)C)s2)c1	-5%
CCc1nnc(NC(=O)c2cc(S(=O)(=O)N3CCN(c4ccccc4)CC3)ccc2Cl)s1	-9%
COc1ncc2nc(-c3cc(F)cc(F)c3)c(=O)n(CCc3ccccc3)c2n1	?
O=C(O)C1C2C=CC3(CN(C4CCCC4)C(=O)C13)O2 (centres undefined)	-18%
O=C(NCc1cccs1)c1cccnc1Cl	-14%
CN(C)CCCNC(=O)c1cc2c3ccccc3n(C)c2s1	-25%
O=C(/C=C/c1ccc(O)cc1)c1cccs1	?
O=C(COC(=O)CNC(=O)c1ccco1)Nc1ccc(Cl)cn1	-13%
CC(C)N(C(=O)C(=O)c1cccn1-c1ccccc1C#N)C(C)C	-2%
COC(=O)C1CSC(C(=O)OC)N1C(=O)Nc1c(C)cccc1C (centres undefined)	-14%
N#C/C(=C\c1cccs1)C(=O)NCc1ccccc1	-15%
CCN=C1SC(CC(=O)Nc2ccccc2)C(=O)N1CC (centres undefined)	-8%
CC1(C)CC(=O)C=C(NNC(=O)C2CCCCC2)C1	15%
O=C(c1ccc(Cl)cc1)C1C2C(=O)N(c3ccccc3)C(=O)C2C2CCCN21 (centres undefined)	-19%
Oc1ccc2oc3c(c2c1)CCCC3	-14%
O=c1nc(-c2ccccc2)cn[nH]1	-15%
O=C(O)CCSc1nnc(-c2ccc3c(c2)OCO3)o1	-29%
CC(=O)OC(C(=O)N1CCN(c2ccccc2F)CC1)c1ccccc1 (centres undefined)	0%
O=C1c2ccccc2C(=O)N1CCCCN(C(=O)c1cc([N+](=O)[O-])ccc1Cl)c1ccc(Cl)cc1	-15%
CC1CCCN(C(=O)c2cc3c(-c4ccc(Cl)cc4)nn(C)c3s2)C1 (centres undefined)	-19%
O=C(OCC(=O)N1CCN(C(=O)c2ccco2)CC1)c1sc2ccccc2c1Cl	-11%
COCc1cc(C)nc(N/N=C/c2ccc(Cl)c(Cl)c2)c1C#N	1%
Cc1ccccc1Oc1ccc(-c2nc(N)nc(N)n2)cc1	25µM*
COc1ccc(NC(=O)C(CCS(C)(=O)=O)NC(C)=O)cc1 (centres undefined)	-8%
CCCCCCCCCC(=O)N/N=C/c1ccc(C)s1	-27%

Additional results:
SMILES	HPGD inh
O=C(O)CCCC(=O)Nc1nc(-c2ccccc2)cs1	-9%
CC(C)C(NC(=O)c1ccc(F)cc1)C(=O)OCC(=O)N1CC(=O)Nc2ccccc21 (centres undefined)	-9%
CCOC(=O)C1=C(C)NC2=C(C(=O)CC(C)(C)C2)C1c1cccc(C)n1 (centres undefined)	?
Cc1cc(NC(=O)CSc2cn(CCNC(=O)c3ccc(F)cc3)c3ccccc23)no1	-1%
Fc1ccc(C2CC(c3ccco3)=NN2c2ccccc2)cc1 (centres undefined)	?
OC(C#Cc1ccccn1)c1cccs1 (centres undefined)	?
CNC(=O)COc1ncnc2sc(C)c(C)c12	-9%
O=C(Nc1ccccc1C(=O)NCCc1ccccc1)c1ccco1	-9%
Cn1c(=O)c2c(nc(CN3CCN(Cc4ccccc4)CC3)n2CCN2CCOCC2)n(C)c1=O	-9%
Cc1ccc(S(=O)(=O)Oc2cccc(/C=N/n3cnnc3)c2)cc1	?

Reprinted at random: 2 entries already listed, in no set order.
SMILES	HPGD inh
O=C(Nc1ccccc1C(=O)NCCc1ccccc1)c1ccco1	-9%
Cn1c(=O)c2c(nc(CN3CCN(Cc4ccccc4)CC3)n2CCN2CCOCC2)n(C)c1=O	-9%

Some of these compounds in order of molar mass, high to low:
SMILES	HPGD inh
COc1ccccc1CNC(=O)C(CCSC)NS(=O)(=O)c1ccc2c(c1)oc(=O)n2C (centres undefined)	-6%
O=C(c1ccc(Cl)cc1)C1C2C(=O)N(c3ccccc3)C(=O)C2C2CCCN21 (centres undefined)	-19%
O[Si](CCCN1CCCCC1)(c1ccc(F)cc1)C1CCCCC1 (centres undefined)	-6%
COc1cnc(-c2ccccn2)nc1Oc1ccc(Cl)cc1	-13%
CC1(C)CC(=O)C=C(NNC(=O)C2CCCCC2)C1	15%

Carrying on:
SMILES	HPGD inh
Cc1cc(C)c(NC(=O)C(C)Sc2nnc(-c3ccco3)n2-c2ccccc2)c(C)c1 (centres undefined)	-2%
O=C(O)CCC(=O)Nc1ccc(C(=O)N2CCCCC2)cc1	0.71µM*
CCC1Oc2ccccc2N(CC(=O)NCCCN2CCCCC2C)C1=O (centres undefined)	-10%
NC(=O)c1ccccc1NC(=O)Nc1cccc(Cl)c1	-16%
O=C(COc1ccccc1)Nn1cnc2ccccc21	-12%
N#Cc1c(N)nc(SCc2ccccc2)c(C#N)c1-c1ccco1	?
COCCCNC(=O)CCc1nc(-c2ccccc2)no1	?
COc1ccc(CNC(=O)C2CCCN2S(=O)(=O)c2ccc(C)cc2)cc1 (centres undefined)	-14%
C/C(=N\N=C(/N)SC1CC(=O)N(c2ccc(Cl)cc2)C1=O)c1cccs1 (centres undefined)	-16%
COc1ccc(CCNS(=O)(=O)c2ccc(C3CNC(=O)C3)cc2)cc1OC (centres undefined)	-12%
Cc1ccc(N2CC(C(=O)NCc3cccnc3)CC2=O)cc1 (centres undefined)	-10%
CC(=O)c1c(C)[nH]c(-c2ccccc2)c1C	-30%
Cc1nc(NC(=O)COc2ccccc2)sc1C(=O)Nc1ccccc1	-16%
CC1CN(C(=O)c2cc3ccccc3oc2=O)CC(C)O1 (centres undefined)	-4%
CCNC(=S)Nc1cc(OCC)c(NC(=O)c2cccs2)cc1OCC	-12%
COc1ccc(-c2nnc(Nc3nc4c(OC)cccc4s3)o2)c(OC)c1	?
O=C(CSc1nnc(NC(=O)C2CCC2)s1)NC1CC1	-8%
CN1/C(=N\O)c2cccc3cccc1c23	?
ClC(Br)=C(n1cnc2ccccc21)n1cnc2ccccc21	-10%
CCn1cc(Br)c(C(=O)Nc2ccc(Cl)cc2Cl)n1	-6%
CC(=O)OC/C=C(\C)CCC=C(C)C	-4%
COc1ccc(CC(=O)Nc2ccc(C(=O)Nc3ccccc3C(=O)O)cc2)cc1OC	-16%
COc1cc(NC(=O)c2ccco2)c(C(=O)OCC(=O)Nc2ncc(Cl)cc2Cl)cc1OC	-8%
CC(C)C[C@@H](CC(=O)N[C@@H](CCC(=O)O)CC(=O)O)NC(=O)[C@@H]1CCCC[C@H]1NC(=O)C[C@H](CCCN)NC(=O)C[C@H](Cc1ccccc1)NC(=O)[C@@H]1CCCC[C@H]1N	-8%
CCOC(=O)c1c(C2COc3ccccc3O2)csc1NC(=O)c1ccccc1 (centres undefined)	?

The list is partial; the hit share may differ from the screen's.
